# Compound activity deposited in PubChem by National Center for Advancing Translational Sciences (NCATS).
# D2 potentiator = human D2 receptor positive allosteric modulation. P14416. DiscoveRx D2 beta-arrestin cells, luminescence, 90 min; 100% = 57 uM dopamine signal. potentiation, % (no concentration beside the values). 0.23% of 360,000 active. AID 624464; active = potentiation of 50% or more; inconclusive = 30% to 50%; inactive = 30% or less;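 further: compound concentration not given in the record; tested on top of an EC20 dose of dopamine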
#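 D2 cells co-treated with compound plus 50 nM dopamine (EC20) for 90 min at 37 deg C to detect potentiation. Beta-arrestin recruitment was read as enzyme-fragment luminescence after 1 h at ambient temperature. Full response was set by 57 uM dopamine.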
# CtBP-E1A inh = CtBP/E1A binding inhibition; AlphaScreen GST-E1A/His-CtBP binding, 1536-well; hits give low values; control for the full effect not named in the record; activity change, % (test concentration not listed); 0.49% of 340,000 active; in the data active means activity change below about -65%; inconclusive means about -30% to -65%; inactive means above about -30%; further: on the % scale 0 is the no-effect control and ±100 the full control effect; compound concentration not given in the record
#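 Protein mix (5X: 125 nM each GST-E1A, His-CtBP) was incubated with pinned compound 2 h at 37 deg C in dark, in 50 mM Tris pH 8.0 buffer with 300 mM NaCl. Glutathione donor and nickel acceptor beads followed; AlphaScreen signal read after 1 h.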
# Sfp inh = blocks B. subtilis Sfp PPTase activity; Q9F4F7; Biochemical Sfp PPTase activity, qHTS; Potency, µM, inactives show max response, negative = inhibition, hits mostly inhibitors; 3.5% of 310,000 active; AID 1490; active means well fitted inhibition curve with a large enough effect; inconclusive means small, poorly fitted or top-dose-only effect, or another doubt; inactive means no such curve, though single readings can be large or run the other way;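 further: the enzyme is Sfp with the accession as filed and its product quenches rhodamine fluorescence; potency means the concentration at half of the fitted maximal effect; 0% = enzyme reaction without inhibitor and -100% = no enzyme wells; top concentration of the series not given in the record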
#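 Buffer: 50 mM Hepes-Na pH 7.6, 10 mM MgCl2, 0.01% Nonidet P-40, 0.01% BSA. Enzyme 15 nM, pre-exposed to compound 15 min; substrates then added and fluorescence change tracked over 30 min.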
# TRPV1 potentiator = potentiators of human vanilloid receptor 1 (TRPV1); Q8NER1; TRPV1-expressing cells, Fluo-8 calcium influx, capsaicin EC20 potentiation; host cell line not named in the record; control for the full effect not named in the record; potentiation, % at 8.33 µM; 0.02% of 320,000 active; active means potentiation above 80%; inconclusive means 30% to 80%; inactive means below 30%; further: 0% is about no effect
#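 Fluo-8 calcium influx in TRPV1-expressing cells, kinetic read (ex 480/em 520 nm). Compound added and read 3 min for agonist activity, followed by capsaicin at EC20 final and 2 min further read for enhancement.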
# D2 ag = activates the human D2 dopamine receptor | P14416 | DiscoveRx PathHunter D2 beta-arrestin, luminescence, 90 min; 100% = 57 uM dopamine signal | activation, % (no concentration beside the values) | 0.084% of 360,000 active; in the data active = activation above about 40%; inconclusive = about 15% to 40%; inactive = below about 15%; further: compound concentration not given in the record; the text of the record calls up to 30% inactive
#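 DiscoveRx PathHunter D2 beta-arrestin cells (2,100/well) attached overnight, then compound-stimulated 90 min at 37 C in HBSS/10 mM HEPES/0.1% Tween-20 buffer; beta-galactosidase complementation read by luminescence after 1 h at ambient temperature. Dopamine 57 uM final (EC100) as control.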
# PINK1 expr mod = changes PINK1 expression; PINK1 immunofluorescence, high-content cytometry, 24 h; Potency, µM (series often up to 76.6 µM), for inactives: at the highest dose activation (PINK1 increase), most hits filed as activators; 0.2% of 410,000 active; AID 624263; active = well fitted activation curve with a large enough effect; inconclusive = small, poorly fitted or top-dose-only effect; inactive = flat fitted curve, though single readings scatter; cell line not stated here;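 further: potency means the concentration at half of the fitted maximal effect; % of control where 0% means no effect; nearly all actives have a fitted effect of over 65% in size; a mitochondrial uncoupler was the plate control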
#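 A stable cell line was treated with compounds at 5 concentrations for 24 hours, with CCCP as control. PINK1 levels and mitochondrial localization were measured by immunofluorescence with mitochondrial, cell and nuclear markers after fixation, read by laser-scanning cytometry.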
# Six1-Eya2 inh = Six1/Eya2 interaction inhibition; AID 651725; Q15475+O00167; activity change, % (test concentration not listed); 0.56% of 360,000 active; AlphaScreen GST-Six1/His-Eya2 binding, biochemical; hits give low values; control for the full effect not named in the record; in the data active = activity change below about -65%; inconclusive = about -30% to -65%; inactive = above about -30%; further: on the % scale 0 is the no-effect control and ±100 the full control effect; compound concentration not given in the record
# Target sequence (O00167 whole entry, looked up): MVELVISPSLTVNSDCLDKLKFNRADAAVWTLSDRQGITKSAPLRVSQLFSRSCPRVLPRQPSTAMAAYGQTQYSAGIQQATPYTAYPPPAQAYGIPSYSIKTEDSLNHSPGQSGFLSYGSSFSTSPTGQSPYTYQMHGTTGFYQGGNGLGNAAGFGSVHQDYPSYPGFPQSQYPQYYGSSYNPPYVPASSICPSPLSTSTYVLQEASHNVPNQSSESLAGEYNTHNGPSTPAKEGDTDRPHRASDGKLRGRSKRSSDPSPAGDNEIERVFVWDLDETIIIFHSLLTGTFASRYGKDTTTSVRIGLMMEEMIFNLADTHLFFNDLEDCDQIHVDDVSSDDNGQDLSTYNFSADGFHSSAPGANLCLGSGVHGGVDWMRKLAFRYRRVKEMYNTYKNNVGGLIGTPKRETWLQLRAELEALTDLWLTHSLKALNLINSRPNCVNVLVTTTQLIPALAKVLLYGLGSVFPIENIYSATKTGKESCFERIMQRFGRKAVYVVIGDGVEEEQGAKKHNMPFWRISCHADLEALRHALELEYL
# Target sequence (Q15475 whole entry, looked up): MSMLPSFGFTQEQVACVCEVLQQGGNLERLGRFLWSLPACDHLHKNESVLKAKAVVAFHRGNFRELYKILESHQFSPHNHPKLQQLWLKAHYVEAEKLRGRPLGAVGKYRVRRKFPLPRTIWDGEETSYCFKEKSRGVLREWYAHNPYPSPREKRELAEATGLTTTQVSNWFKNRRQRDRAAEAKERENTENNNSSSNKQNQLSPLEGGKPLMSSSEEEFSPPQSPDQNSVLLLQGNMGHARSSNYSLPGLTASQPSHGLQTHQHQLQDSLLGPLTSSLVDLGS
#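 Six1/Eya2 binding was read as AlphaScreen signal after compounds were pinned into GST-Six1 plus His-tagged Eya2 (5X stock 250/500 nM) in pH 8.0 Tris/NaCl/TCEP buffer, beads added, then incubated 1 h, 37 C, dark.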
# An asterisk follows results filed as active; ? = inconclusive; . = not tested or not shown; [ ] = dose if it differs, or a comment.
canonical_smiles	D2 potentiator	CtBP-E1A inh	Sfp inh	TRPV1 potentiator	D2 ag	PINK1 expr mod	Six1-Eya2 inh
C/C(CS(=O)(=O)c1ccc(Cl)c(Cl)c1)=N/NC(N)=S	1	3	?	8	-0.8	1.7%	-1
Cc1ccc(C)c(-c2csc(N/N=C/c3ccco3)n2)c1	-3	-19	1%	19	-2.6	4.9%	-21
Clc1ccc(Br)c(-c2nc3ccccc3[nH]2)c1	-15	-24	.	.	-7.0	3.1%	5
CC1(C)Cc2ccccc2C(COc2ccccc2)=N1	0	-1	-10%	-16	-0.9	1.2%	-6
CC(NS(=O)(=O)c1ccc(Br)cc1)C(=O)NC1CCCCCC1 (centres undefined)	-28	4	2%	16	-2.1	1.9%	1
COc1ccccc1NC(=O)c1ccc2c(c1)C(=O)N(c1ccccc1OC)C2=O	2	-15	2%	-1	6.3	-1.3%	4
OC(c1ccccc1)(c1ccccc1)c1ncc[nH]1	-9	1	.	0	-1.2	2.3%	3
O=C(O)c1ccc(-c2ccc(/C=c3/sc4nc5ccccc5n4c3=O)o2)cc1Cl	-3	-28	50µM*	3	-1.5	1.0%	?
CCCCC/C=C/C1=CC(=O)C[C@H](c2ccc(OC)c(OC)c2)C1	-2	-10	.	-10	-4.4	6.2%	0
O=C(C[C@H]1C[C@H](C(=O)N2CCOCC2)[C@@]2(CCC3CCCC3)c3[nH]c4ccc(Cl)cc4c3CCN2C1=O)NCC12CC3CC(CC(C3)C1)C2	-4	-11	.	.	0.8	0.7%	5

canonical_smiles	D2 potentiator	CtBP-E1A inh	Sfp inh	TRPV1 potentiator	D2 ag	PINK1 expr mod	Six1-Eya2 inh
Cc1cc(C)c(C(=O)N(C)CC2CCCN(CCc3ccccc3F)C2)o1 (centres undefined)	-50	-1	-2%	-21	-5.2	-1.3%	-4
O=S(=O)(Nc1cccc(-c2ccc(N3CCOCC3)nn2)c1)c1ccc(Cl)c(Cl)c1	4	-9	.	-3	-1.7	-0.7%	-7
CCCc1cc(C(=O)Nc2ccc(CC)cc2)no1	-11	14	-1%	-1	-3.5	0.7%	26
CCC(=O)Nc1ccc(OCc2nnc3c4ccccc4c(C)nn23)cc1	-1	?	9%	6	-0.4	3.0%	-28
O=C(CCn1c(=O)oc2ccccc21)Nc1cccc([N+](=O)[O-])c1	-29	-4	8%	-5	-0.8	17%	1
Nc1ccccc1-c1nnc(SCC(=O)Nc2ccccc2OC(F)F)[nH]c1=O	1	-4	.	.	2.0	-0.9%	-6
CCOc1ccc(NC(=O)NNC(=O)c2ccc3ccccc3c2O)cc1	1	-6	16%	7	6.1	-0.1%	-4
O=C(CSCc1ccccc1)NNc1c(F)c(F)cc(F)c1F	-9	-4	1%	-4	-4.2	1.6%	4
COC(=O)/C(C#N)=C/c1c(N2CCCCCC2)nc2c(C)cccn2c1=O	-5	-12	-13%	-19	-3.0	-1.3%	-17
CC(=O)Nc1sc(C)c(C)c1C(=O)OCC(=O)NCc1ccc(Cl)cc1	0	.	.	10	-3.5	3.0%	9

canonical_smiles	D2 potentiator	CtBP-E1A inh	Sfp inh	TRPV1 potentiator	D2 ag	PINK1 expr mod	Six1-Eya2 inh
CCS(=O)(=O)N1CCC(C(=O)OCC(=O)c2ccc(Br)cc2)CC1	-27	5	.	.	-3.7	0.5%	7
O=C(c1ccccc1)c1ccc(OCC(O)CN2CCN(Cc3ccccc3)CC2)cc1 (centres undefined)	-6	-9	-17%	2	0.3	0.1%	-11
Cc1onc(-c2ccccc2Cl)c1C(=O)NCc1ccccc1	2	6	3%	2	-1.0	0.5%[38.3 µM]	4
O=C(OCC(=O)N1CCC(Cc2ccccc2)CC1)c1ccccc1O	-9	3	.	.	-6.3	?	3
CCOC(=O)N1CCN(C(=O)CSc2ccc3nnc(-c4ccccn4)n3n2)CC1	0	-22	9%	-16	0.2	12%	?
Cc1cc(C)cc(N(CC(=O)N2CCC(C)CC2)S(=O)(=O)c2ccccc2)c1	-11	-4	3%	-31	-2.5	-1.4%[38.3 µM]	1
CN(C)S(=O)(=O)c1ccc(C(=O)NNC(=O)C2COc3ccccc3O2)cc1 (centres undefined)	0	-11	-3%	-1	-2.5	0.3%	2
CCOC(=O)N1CCN(C(=O)Nc2ccc3oc(C)nc3c2)CC1	?	3	-8%	-23	7.5	-6.7%[38.3 µM]	0
CCOc1ccc(-n2c(SCC(=O)NCc3ccco3)nc3ccccc3c2=O)cc1	-1	12	14%	-7	-0.8	8.1%	2
CCCCNC(=O)CSc1nc2ccc(N3CCOCC3)cc2c(=O)n1Cc1ccc(OC)cc1	-1	2	2%	-14	-1.7	6.8%	5

canonical_smiles	D2 potentiator	CtBP-E1A inh	Sfp inh	TRPV1 potentiator	D2 ag	PINK1 expr mod	Six1-Eya2 inh
Cc1cc(C)c(NC(=O)CS(=O)CC(=O)N2CCN(c3cccc(C)c3C)CC2)c(C)c1 (centres undefined)	-1	-1	4%	-1	1.9	2.3%	1
Cc1cccc2cc(C(c3nnnn3Cc3ccccc3)N3CCN(C)CC3)c(=O)[nH]c12 (centres undefined)	15	-1	15%	-10	-2.9	17%[38.3 µM]	-1
O=Nc1c(O)ccc2cc(S(=O)(=O)O)ccc12	100*	-3	.	.	?	0.4%	-3
CC(Oc1ccccc1F)C(=O)NNC(=O)CCNC(=O)c1ccco1 (centres undefined)	0	-19	.	-3	-5.5	3.0%	7
CC(C)Cn1cnc2c(SCc3ccccn3)nc(N)nc21	-2	1	.	.	0.6	2.2%	2
Cc1ccc(COc2ccccc2C(=S)N2CCCC2)cc1	-5	1	25µM*	-7	-0.2	1.1%	-4
CC(C)C(NC(=O)OCc1ccccc1)C(=O)N1CCOCCOCCOCC1 (centres undefined)	-5	1	18%	-16	-0.2	0.5%	4
CC(=O)NC(CCc1ccc(Cl)c(Cl)c1)c1cccc(O)c(=O)c1 (centres undefined)	-4	-13	.	.	-2.3	3.2%	-24
COc1cc(SC#N)ccc1N=Cc1c(C)[nH]n(-c2ccc(C)cc2C)c1=O	29	-19	-11%	-2	-2.4	0.4%	-30
COc1ccc(NS(=O)(=O)c2ccc(NC(C)=O)cc2)c(OC)c1	-5	4	3%	3	2.1	6.0%	1

canonical_smiles	D2 potentiator	CtBP-E1A inh	Sfp inh	TRPV1 potentiator	D2 ag	PINK1 expr mod	Six1-Eya2 inh
O=C(Nc1ccccc1N1CCCC1)C1CCN(C(=O)c2ccc(F)cc2)CC1	-12	-6	.	8	-0.9	1.3%	5
CCCCc1cc(=O)oc2cc(C)cc(OCC(=O)Nc3cccnc3)c12	-7	5	11%	-8	3.6	5.5%	0
Cc1cc(C)n2nc(CC(=O)NCc3ccccc3Cl)nc2n1	-22	13	-2%	-10	-2.5	0.4%	-12
CCN(CC)S(=O)(=O)c1ccc(N2CCCC2)c(NC(=O)c2ccc(N3CCCC3=O)cc2)c1	-7	-11	.	12	-3.0	3.7%	-9
CCCCCNS(=O)(=O)c1cc(C)ccc1OC	-14	4	?	-15	-2.8	1.0%	-1
O=C(Nc1cccc(Cl)c1)c1ccc(OC(=S)N2CCOCC2)cc1	-3	23	18%	0	11	3.9%	-1
Cn1cc(-c2csc(C(O)c3ccc(F)c(F)c3)n2)cn1 (centres undefined)	-6	-1	.	.	-1.8	-0.3%	-2
COCCCn1c(SCC(=O)Nc2ccc(NC(C)=O)cc2)nc2sc3c(c2c1=O)CCC3	-4	1	-1%	-8	-5.0	?	46
O=c1nc2c(O)cccn2c2c1c(=O)[nH]c1ccccc12	-12	4	-14%	8	-5.5	16%	-83*
Cc1ccnc(NC(=O)c2cccc(NS(=O)(=O)c3ccccc3C)c2)c1	-5	4	6%	4	-1.2	0.2%	8

canonical_smiles	D2 potentiator	CtBP-E1A inh	Sfp inh	TRPV1 potentiator	D2 ag	PINK1 expr mod	Six1-Eya2 inh
O=C(NC1CCCCC1)C1CCCN(S(=O)(=O)c2ccc(Br)s2)C1 (centres undefined)	-2	0	15%	-23	2.9	3.2%	2
COc1ccc(CNC(=O)c2nccnc2CO)cc1	3	6	11%	0	3.8	0.9%	2
CCOc1cc(NC(=S)NCc2ccco2)c(OCC)cc1NC(C)=O	11	6	-1%	-3	-2.4	.	-1
COc1ccc(NC(=O)C(=O)NCCO)cc1Cl	14	8	17%	6	2.2	-4.5%	2
CCCOC(=O)CC1C(=O)NCCN1Cc1cc(OC)cc(OC)c1 (centres undefined)	1	4	13%	5	-3.4	-0.7%	3
Cc1cc(OCC(=O)Nc2ccncc2)cc(C)c1Cl	-18	.	-1%	10	7.4	2.8%	13
O=C(NCCc1ccccc1)c1ccc(CS(=O)(=O)Cc2ccc(F)cc2)o1	-45	0	18%	-26	10	0.0%	-6
C=CCN1C(=O)C(O)(CC(=O)c2ccc(-n3cccc3)cc2)c2ccccc21 (centres undefined)	-12	-2	-16%	-1	-1.3	-3.6%	-9
Cc1cc(N(CCO)CCO)nc(-n2nc(C)cc2C)n1	-5	0	0%	1	-1.7	-0.3%	2
O=C(Nc1ccc2nc(N3CCOCC3)sc2c1)c1cc2ccccc2o1	-11	-1	.	.	8.4	6.9%	-4

canonical_smiles	D2 potentiator	CtBP-E1A inh	Sfp inh	TRPV1 potentiator	D2 ag	PINK1 expr mod	Six1-Eya2 inh
CN(C)S(=O)(=O)c1ccc(C(=O)N2CC(=O)Nc3ccc(F)cc3C2c2ccc(F)cc2)cc1 (centres undefined)	0	8	1%	-11	4.8	-1.8%	4
Fc1ccccc1Nc1nc2ccccc2n2nnnc12	28	-1	-8%	25	10	11%	5
O=C(Cn1cc(COc2ccc(Br)cc2[N+](=O)[O-])nn1)c1ccc(O)cc1	-19	0	.	.	-4.7	1.7%	-8
CC1CN(C(=O)CCC(=O)NC2CCN(Cc3ccccc3)CC2)c2ccccc2O1 (centres undefined)	-13	-9	9%	16	-7.5	-0.8%	-9
CCOC(=O)c1cn(CC(=O)Nc2cccc(F)c2)nn1	-3	1	20%	9	2.4	0.0%	1
Nc1ccccc1CCc1ccccc1N	-14	-7	.	.	-0.6	1.4%	0
CC(Sc1nccn1C)C(=O)c1ccc(Br)cc1 (centres undefined)	-3	0	18%	7	-3.7	3.0%	2
COC(=O)c1cccnc1Oc1ccccc1	-8	6	11%	-13	3.1	0.2%	4
COc1ccc(NC(=O)COc2ccc(C(=O)NCc3cccnc3)cc2OC)cc1	-4	.	.	4	-1.9	-0.2%	-3
Cc1nc2c(OCC(=O)c3ccc(F)cc3)cccn2c1N(C)Cc1cccs1	-14	-16	.	.	5.0	-0.9%	-1
Cc1cccc(C)c1NC(=O)Nc1cccs1	-12	-2	56µM*	6	-0.6	2.2%	0
